Source: PubChem BioAssay (ICCB-Longwood Screening Facility, Harvard Medical School)
GIV-Gai inh: inhibitors of GIV peptide binding to Galpha-i3, primary screen, biochemical, fluorescence polarization, FITC-GIV GBA peptide, rat Galphai3; 90 min; active compounds read low; scaled: aluminum fluoride 0%, vehicle 100%; percent of control (FP), % (no concentration beside the values); hit rate 0.42% among 210,000;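 active = replicate mean at 85% of control or lower, very high polarization wells dropped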;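 note: wells of about 15 µL received 100 nL stock; the first replicate is given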
Target sequence (P08753 whole entry, looked up): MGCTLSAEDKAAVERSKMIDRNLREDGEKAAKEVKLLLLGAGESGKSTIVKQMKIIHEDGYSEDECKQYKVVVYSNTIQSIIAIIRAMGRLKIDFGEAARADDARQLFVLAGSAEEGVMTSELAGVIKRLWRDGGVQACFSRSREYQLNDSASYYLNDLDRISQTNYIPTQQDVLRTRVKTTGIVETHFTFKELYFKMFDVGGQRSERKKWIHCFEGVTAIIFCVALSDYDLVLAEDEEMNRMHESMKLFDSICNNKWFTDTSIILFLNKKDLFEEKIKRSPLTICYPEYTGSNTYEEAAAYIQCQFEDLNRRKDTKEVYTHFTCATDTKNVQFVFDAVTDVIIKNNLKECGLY
* hit, by the source's call. These rows are one share of the data; the hit share may differ from the screen's.

COc1ccc2nc(-n3nc(C)c4c3NC(=O)CC4c3ccsc3)sc2c1 (stereo not given)
  GIV-Gai inh: 104
CC1(C)CC(=O)C2=C(C1)OC1=C(C(=O)CC(C)(C)C1)C2c1ccc(-c2ccc3c(c2)COC3=O)o1
  GIV-Gai inh: 111
CCOC(=O)c1c(NC(=O)CSc2nnc(CNC(=O)c3cccs3)n2Cc2ccccc2)sc2c1CCC2
  GIV-Gai inh: 101
COc1ccc(-n2c(=O)c3c4c(sc3n3c(SCc5ccccc5)nnc23)COC(C)(C)C4)cc1
  GIV-Gai inh: 106
Cc1cccc(NC(=O)C2CC(O)CN2C(=O)Oc2ccccc2)c1 (stereo not given)
  GIV-Gai inh: 108
O=C1CCCc2c1cc(C(=O)NCc1cccc(Cl)c1)c(=O)n2-c1ccc(F)cc1
  GIV-Gai inh: 100
O=C(c1nnc(-c2cc(S(=O)(=O)NCc3ccccn3)c[nH]2)o1)N1CCCC1
  GIV-Gai inh: 103
Cc1nc(N2CCOCC2)c2c(C)c(C(=O)NC3CCCC(C)C3C)sc2n1 (stereo not given)
  GIV-Gai inh: 104
COc1ccc(-c2c(C(=O)Nc3cccc(Cl)c3)nn3c(C)cc(=O)[nH]c23)cc1
  GIV-Gai inh: 110
O=C(CCN1C(=O)c2ccccc2C1=O)NCc1noc(-c2ccc(F)cc2)n1
  GIV-Gai inh: 102

Cc1cc2c(cc1C)C(c1cccc(C(F)(F)F)c1)CC(=O)N2 (stereo not given)
  GIV-Gai inh: 108
CC1=NN(c2ccc(C(=O)OC(C)C)cc2)C(=O)/C1=C\c1ccc(-c2ccc3c(c2)C(=O)NC3=O)o1
  GIV-Gai inh: 104
Cc1nn(C)c(C)c1S(=O)(=O)N1CCCC(c2nnc(C(=O)Nc3ccc(Cl)cc3)s2)C1 (stereo not given)
  GIV-Gai inh: 98
COc1ccc(/C=C2\C=C(c3ccccc3)N(c3cccc(C(=O)O)c3)C2=O)cc1
  GIV-Gai inh: 108
Cc1ccc(C23CC4CC(CC(C(=O)N5CCOCC5)(C4)C2)C3)cc1
  GIV-Gai inh: 107
COc1ccc(-c2cc(N3CCN(C(=O)Nc4cccc(Cl)c4)CC3)ncn2)cc1
  GIV-Gai inh: 100
COC(=O)c1c(-c2ccc(Cl)cc2)noc1NC1CC1
  GIV-Gai inh: 103
CC(=O)N(Cc1nn(C)c2c1CN(S(=O)(=O)c1ccc3c(c1)OCCO3)CC2)c1ccccc1
  GIV-Gai inh: 99
C=CCOC(=O)C1=C(C)NC(SCC(=O)Nc2ccc(OCC)cc2)=C(C#N)C1c1ccco1 (stereo not given)
  GIV-Gai inh: 110
O=C(NCCCN1CCCCC1)C1CCN(c2nn3c(=O)c4c(nc3s2)CCCC4)CC1
  GIV-Gai inh: 99

C=CCOc1ccc(C(=O)N/N=C/c2cn(-c3ccccc3)nc2-c2ccccc2)cc1
  GIV-Gai inh: 101
COc1ccc(C2C3=C(CC(C)(C)CC3=O)NC3=C2C(=O)CC(C)(C)C3)cc1O
  GIV-Gai inh: 109
CCc1onc(C)c1C1CCCN1Cc1ccc(OC(C)C)cc1 (stereo not given)
  GIV-Gai inh: 107
COc1cc(-c2nc(C=Nc3ccc4ccccc4c3)c(O)o2)cc(OC)c1OC
  GIV-Gai inh: 104
CCOC(=O)C1=C(C)N=c2s/c(=C/c3cccc([N+](=O)[O-])c3O)c(=O)n2C1c1ccc(OC)c(OC)c1 (stereo not given)
  GIV-Gai inh: 106
COc1ccc(C2OCC3(COC(C)=O)C(C)C=C(C)C2C3C)cc1 (stereo not given)
  GIV-Gai inh: 103
Cc1ccc(C(=O)Nc2cc3c4c(c2)C2CCCC2CN4CC2CCCC32)cc1 (stereo not given)
  GIV-Gai inh: 110
O=S(=O)(c1ccc(Cl)cc1)N(Cc1ccco1)CC1CCCO1 (stereo not given)
  GIV-Gai inh: 98
C=CCN1CCN(c2nn3c(NC4CCCC4)c(-c4cccc(C)c4)nc3s2)CC1
  GIV-Gai inh: 107
O=c1c2c(n3cnnc3n1-c1ccccc1)-c1ccccc1CC21CCCCC1
  GIV-Gai inh: 114

CCCn1c(CCc2ccc(NS(=O)(=O)CC)cc2)nc2ccccc21
  GIV-Gai inh: 126
O=C1c2ccccc2NC2(C(=O)N(Cc3c(Cl)cccc3Cl)c3ccccc32)N1c1ccccc1 (stereo not given)
  GIV-Gai inh: 108
CC1(C(=O)NCc2ccccc2)CCCN(C(=O)NC2COc3ccccc3C2)C1 (stereo not given)
  GIV-Gai inh: 102
CC1=C(c2ccc(F)cc2)S(=O)(=O)N=C1N1CCCN(C(=O)C(C)(C)C)CC1
  GIV-Gai inh: 101
CCOC(=O)C1=C(C(=O)OCC)SC(=C2C(=S)C(C)(C)N(C(=O)c3ccccc3)c3cc(OC)ccc32)S1
  GIV-Gai inh: 100
COc1ccc(-c2noc(COc3ccc(C)cc3Br)n2)cc1OC
  GIV-Gai inh: 105
Cc1ccc(C2Nc3ccc(F)cc3[C@H]3OCCC[C@@H]23)cc1 (stereo not given in full)
  GIV-Gai inh: 103
CN1CCCc2cc(C(=O)NC3CCCC3)sc21
  GIV-Gai inh: 101
CC1=C(c2ccc(F)cc2)S(=O)(=O)N=C1N1CCC(NC(=O)NC(C)C)CC1
  GIV-Gai inh: 107
CCCCNC(=O)CSc1nc2ccccc2n1S(=O)(=O)c1ccc(OC)cc1
  GIV-Gai inh: 108

CCOC(=O)c1[nH]c(C)c(CN(C(=O)Nc2cc(C)ccc2OC)C2CCCCC2)c1C
  GIV-Gai inh: 99
Cc1ccc(NC(=O)Cc2c(Sc3ccccc3)c3ccccc3n2Cc2ccccc2)cc1
  GIV-Gai inh: 106
CCOc1ccc(N2CC(O)(c3ccc(C)cc3)[N+]3=C2SCCC3)cc1 (stereo not given)
  GIV-Gai inh: 108
COc1cccc(CNC(=O)C2(C)CCCN(C(=O)c3cccc(N(C)C)c3)C2)c1 (stereo not given)
  GIV-Gai inh: 105
COCCNC(=O)c1ccc2c(=O)n(Cc3ccc4c(c3)OCO4)c(SCC(=O)NCC3CCCO3)nc2c1 (stereo not given)
  GIV-Gai inh: 105
O=C(NCCc1ccccc1)c1ccc2c(=O)n(CCc3c[nH]c4ccccc34)c(=S)[nH]c2c1
  GIV-Gai inh: 108
Cc1ccc(C)c(CSc2nnc3c(=O)n(-c4ccc(C(C)C)cc4)ccn23)c1
  GIV-Gai inh: 110
CN1CCN(c2ncncc2N2CCC(C(=O)NC3CCCC3)CC2)CC1
  GIV-Gai inh: 96
c1ccc(-n2nnnc2Oc2cccc(CNCCCN3CCOCC3)c2)cc1
  GIV-Gai inh: 100
O=S(=O)(c1ccc2c(c1)Cc1cc(S(=O)(=O)N3CCOCC3)ccc1-2)N1CCOCC1
  GIV-Gai inh: 100

CC1(C)Cc2ccccc2C(Nc2ccccc2)=N1
  GIV-Gai inh: 106
O=C(Nc1cccc(Cl)c1)c1c(NC(=O)C(F)(F)F)sc2c1CCC2
  GIV-Gai inh: 112
Cc1ccc(S(=O)(=O)c2ncsc2SCC(=O)N2CCN(c3ccccc3)CC2)cc1
  GIV-Gai inh: 97
O=C(NCCn1cnc2cc(C(=O)NC3CCCC3)ccc21)NCc1ccc(F)cc1
  GIV-Gai inh: 103
O=C(NNc1ccc(Br)cc1Br)C(O)(c1ccc(Cl)cc1)c1ccc(Cl)cc1
  GIV-Gai inh: 105
Cc1ccc(CNC(=O)C2(C)CCCN(C(=O)c3ccc(C)c(C)c3)C2)cc1 (stereo not given)
  GIV-Gai inh: 109
Cc1nccn1Cc1noc(-c2ccco2)n1
  GIV-Gai inh: 97
CCSc1nc2ccc(NS(=O)(=O)c3ccc(F)cc3)cc2s1
  GIV-Gai inh: 104
Cc1cc(N2CCCC2)nc(N2CCN(C(=O)c3ccc(Br)cc3)CC2)n1
  GIV-Gai inh: 105
CC(C)c1cc(C2CCCN2Cc2cccc(Cl)c2)no1 (stereo not given)
  GIV-Gai inh: 101

CC(=O)C1=NN(c2cccc(Cl)c2)C2(S1)SC(c1ccc(Br)cc1)(c1ccc(Br)cc1)c1ccccc12 (stereo not given)
  GIV-Gai inh: 106
CN(c1ccc(F)cc1)S(=O)(=O)c1ccc2[nH]cc(C(=O)N3CCN(c4ccccc4)CC3)c(=O)c2c1
  GIV-Gai inh: 100
COc1ccccc1C1C2=C(CC(C)(C)CC2=O)NC2=C1C(=O)CC(C)(C)C2
  GIV-Gai inh: 109
CCc1ccc(-c2csc(Cc3nc(-c4ccc(F)cc4)no3)n2)cc1
  GIV-Gai inh: 105
O=C(NCCc1c[nH]c2ccccc12)c1csc(-c2ccncc2)n1
  GIV-Gai inh: 103
O=C1CC(c2c(F)cccc2Cl)c2cnn(-c3nc4ccccc4s3)c2N1 (stereo not given)
  GIV-Gai inh: 102
Cc1ccc(NC(=O)c2sc3nc4c(c(-c5ccco5)c3c2N)CCCC4)cc1
  GIV-Gai inh: 103
COc1ccc(NC(=O)CSc2nc(C(F)(F)F)cc(C)c2C#N)cc1
  GIV-Gai inh: 120
CC1(C)OC2OC(COC(=O)COc3ccc(Cl)cc3Cl)C3OC(C)(C)OC3C2O1 (stereo not given)
  GIV-Gai inh: 108
COc1ccc(CCNC(=O)Cn2nc(-c3nc(-c4ccc(C)cc4)no3)c3ccccc32)cc1OC
  GIV-Gai inh: 102

CC(=O)N1c2ccc(S(=O)(=O)Nc3cccc(-c4ccc5ccccc5n4)c3)cc2CC1C (stereo not given)
  GIV-Gai inh: 100
Cc1ccc(CNS(=O)(=O)c2ccc(-c3cnc(C4CC4)o3)s2)o1
  GIV-Gai inh: 106
CCOC(=O)c1[nH]c(C)c(CCC(=O)N2CCCC(C(=O)NCCN(C)C)C2)c1C (stereo not given)
  GIV-Gai inh: 107
O=C(NC1CC1)c1nc(-c2cccs2)cs1
  GIV-Gai inh: 102
O=C(Nc1cc(Cl)cc(Cl)c1)c1cc(S(=O)(=O)N2CCN(c3ccccc3)CC2)ccc1F
  GIV-Gai inh: 117
CCc1ccc(NC(=O)N2CCCC2c2c(C)noc2C)cc1 (stereo not given)
  GIV-Gai inh: 99
CC1CCN(C(=O)c2cc3c(s2)CCC(C(=O)NCCCN2CCOCC2)C3)CC1 (stereo not given)
  GIV-Gai inh: 107
Cc1cc(C)n(CCC(=O)N2CCN(Cc3noc4ccccc34)CC2)n1
  GIV-Gai inh: 106
COc1ccc(S(=O)(=O)n2c(SCC(=O)Nc3ccc(NC(C)=O)cc3)nc3ccc(OC)cc32)cc1
  GIV-Gai inh: 108
Cc1cc(N2CCCC2)nc2ccc(NC(=O)CC(C)C)cc12
  GIV-Gai inh: 104

Cc1ccc(-c2ccc(N3CCCC3)nn2)cc1S(=O)(=O)N1CCOCC1
  GIV-Gai inh: 99
Cc1ccnc(NC(=O)C2CCN(S(=O)(=O)c3c(C)nn(CC(=O)N4CCCC4)c3C)CC2)c1
  GIV-Gai inh: 102
CCc1ccc(N2CC(O)(c3ccc(OC)cc3F)[N+]3=C2SCCC3)cc1 (stereo not given)
  GIV-Gai inh: 104
CN(c1ccc(Br)cc1)S(=O)(=O)c1ccc2[nH]cc(C(=O)NCCN3CCOCC3)c(=O)c2c1
  GIV-Gai inh: 102
C1CCN(c2nc3nonc3n3nnnc23)C1
  GIV-Gai inh: 105
O=C1Nc2ccccc2C12CCN(S(=O)(=O)c1ccc(Br)cc1)C2 (stereo not given)
  GIV-Gai inh: 100
C=CCn1c(SCC(N)=O)nnc1-c1ccc2[nH]c(C)c(C)c2c1
  GIV-Gai inh: 101
O=C(Sc1sc(=S)sc1SC(=O)c1ccccc1Br)c1ccccc1Br
  GIV-Gai inh: 104
O=C(NCc1ccc(Br)cc1)c1cccc(Nc2ncc(-c3cccc(F)c3)cn2)c1
  GIV-Gai inh: 105
CCS(=O)(=O)N1CCN(C(=O)CC2CCN(S(=O)(=O)c3c(C)noc3C)CC2)CC1
  GIV-Gai inh: 105

CCCCCNC(=O)c1sc2ncccc2c1-n1cccc1
  GIV-Gai inh: 110
O=C1C2C3c4ccccc4C(CO)(c4ccccc43)C2C(=O)N1c1ccc(Cl)cc1 (stereo not given)
  GIV-Gai inh: 105
CCN1C(=O)CC(C(=O)Nc2ccc(OC)cc2)SC1=Nc1ccc(C(=O)OC)cc1 (stereo not given)
  GIV-Gai inh: 100
CCOc1ccc(NC(=O)c2c(NC(=O)c3ccncc3)sc3c2CCCCC3)cc1
  GIV-Gai inh: 105
CCOc1ccccc1-c1nc(-c2ccc(NC(=O)Cc3ccccc3OC)cc2)no1
  GIV-Gai inh: 105
COc1ccc(-n2c(/C=C/c3cccc(OC)c3O)nc3ccccc3c2=O)cc1OC
  GIV-Gai inh: 106
